# TRPML1 agonist: qHTS for Agonists of the Human Mucolipin Transient Receptor Potential 1 (TRPML1); Mucolipin-1 (Homo sapiens), Q9GZU1; TRPML1-expressing cells, Ca2+ dye fluorescence, FDSS; host cell line not named in the record; reference of the full effect not given here; activation, % (no concentration beside the values); 410,000 tested, 0.12% active; AID 624414, 2012; in the data active = activation above about 50%; inconclusive = about 30% to 50%; inactive = below about 30%; note: 0% is about no effect; the text of the record puts the active cut at 80%
#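 Calcium fluorescence on an FDSS kinetic reader gave the read-out. Tet-induced TRPML1-DL cells were plated overnight, dye-loaded (Ca8 with quencher, 45-90 min, room temperature, dark), then read 110 s after compound addition, and again 110 s after 4uM final 54-4 (EC80).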
# ClpP mod: qHTS Assay for Activators of ClpP; ATP-dependent Clp protease proteolytic subunit (Bacillus subtilis (strain 168)), P80244; purified B. subtilis ClpP, FRET peptide cleavage, 20 min; Potency, µM (series often up to 57.5 µM), for the others: at the top dose activity change, negative = active; 340,000 tested, 1.9% active; active = well fitted falling curve with a large enough effect; inconclusive = small, poorly fitted or top-dose-only effect; inactive = no such curve, though single readings can be large or run the other way; note: potency is the fitted concentration of half-maximal effect; the source files actives as falling curves though it sought activators and does not explain the sign; nearly all actives have a fitted effect of over 65% in size; many hits overshoot -100%
# Target sequence (P80244 whole entry, looked up): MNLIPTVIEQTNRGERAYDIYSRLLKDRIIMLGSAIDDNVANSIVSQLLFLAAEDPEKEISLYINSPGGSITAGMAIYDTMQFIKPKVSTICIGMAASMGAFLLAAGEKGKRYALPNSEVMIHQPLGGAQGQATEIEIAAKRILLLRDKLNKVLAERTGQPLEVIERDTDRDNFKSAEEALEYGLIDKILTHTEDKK
#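 Buffer: 100 mM Tris/HCl pH8, 100 mM KCl, 0.05% low protease BSA, 2.5% glycerol, 0.01% Tween-20. ClpP 10 microg/mL final; 20 min RT; delta FRET normalized to ADEP and DMSO controls.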
# TRPML1 inh: qHTS for Inhibitors of the Human Mucolipin Transient Receptor Potential 1 (TRPML1); 390,000 tested, 0.02% active; AID 624415, 2012; Mucolipin-1 (Homo sapiens), Q9GZU1; TRPML1-inducible cells, Ca2+ dye fluorescence, FDSS; hits give low values; inhibition of EC80 agonist-evoked calcium signal; activity change, negative = inhibition, % (concentration not given with the values); in the data active means activity change below about -50%; inconclusive means about -30% to -50%; inactive means above about -30%;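 note: stimulus is agonist 54-4 at its EC80 concentration; % is set by controls: 0 for no effect and ±100 for the full control effect; compound concentration not given in the record; the text of the record puts the active cut at -80%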
#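 Tet-induced TRPML1-DL cells loaded with Ca8 no-wash calcium dye were read kinetically on FDSS. Compound addition was followed by EC80 agonist 54-4 (4 uM final); inhibition was read over 110 s.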
# Menin MLL FP FL: qHTS Assay for Inhibitors Targeting the Menin-MLL Interaction in MLL Related Leukemias: Competition With Fluorescein Labeled MLL-derived Peptide; Fluorescence polarization, fluorescein-MLL peptide displacement from menin; FP activity change, % at 61.4 µM; 290,000 tested, under 10 active; AID 1766, 2009; inconclusive = falling polarisation curve, or a change in total fluorescence; inactive = total fluorescence flat and polarisation flat or rising; no compound was filed as active; the % refers to the polarisation; negative = inhibition;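 note: % of control where 0% means no effect; inhibitors lower the polarisation; unlabelled MLL peptide was the positive control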
# TRPV1 PAM: HTS Assay for Compounds that Act as Potentiators of the Vanilloid Receptor 1; potentiation, % at 8.33 µM; Transient receptor potential cation channel subfamily V member 1 (Homo sapiens), Q8NER1; TRPV1-expressing cells, Fluo-8 calcium influx, capsaicin EC20 potentiation; host cell line not named in the record; control for the full effect not named in the record; 320,000 tested, 0.02% active; active means potentiation above 80%; inconclusive means 30% to 80%; inactive means below 30%; note: 0% is about no effect
# Target sequence (Q8NER1 whole entry, looked up): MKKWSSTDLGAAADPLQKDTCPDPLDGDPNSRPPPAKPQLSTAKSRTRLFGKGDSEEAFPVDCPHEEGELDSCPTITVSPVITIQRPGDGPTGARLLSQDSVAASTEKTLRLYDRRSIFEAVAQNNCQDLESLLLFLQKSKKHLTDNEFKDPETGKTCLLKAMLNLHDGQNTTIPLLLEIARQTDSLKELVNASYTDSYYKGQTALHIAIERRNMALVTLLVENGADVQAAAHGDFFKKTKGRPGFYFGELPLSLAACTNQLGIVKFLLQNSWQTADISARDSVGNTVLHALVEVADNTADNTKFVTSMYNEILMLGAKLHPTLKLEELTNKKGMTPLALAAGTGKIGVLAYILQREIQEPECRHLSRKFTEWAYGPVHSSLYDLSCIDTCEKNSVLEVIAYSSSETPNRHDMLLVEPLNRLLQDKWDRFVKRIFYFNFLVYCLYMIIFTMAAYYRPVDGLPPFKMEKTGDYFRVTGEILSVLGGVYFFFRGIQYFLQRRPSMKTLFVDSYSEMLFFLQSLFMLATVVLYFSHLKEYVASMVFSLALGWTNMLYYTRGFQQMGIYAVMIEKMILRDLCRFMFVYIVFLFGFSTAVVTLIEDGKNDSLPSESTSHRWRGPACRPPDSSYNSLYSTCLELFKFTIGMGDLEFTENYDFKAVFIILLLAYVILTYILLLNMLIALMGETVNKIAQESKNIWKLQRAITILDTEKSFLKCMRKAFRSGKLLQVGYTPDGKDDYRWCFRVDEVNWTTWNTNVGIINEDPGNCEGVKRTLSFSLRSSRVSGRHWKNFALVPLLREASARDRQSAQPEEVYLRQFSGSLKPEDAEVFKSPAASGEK
#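 TRPV1-expressing cells were cultured overnight at 35.5C and loaded with Fluo-8 calcium dye for 40 to 90 min at room temperature. After a 10 s baseline, compound was added and calcium influx was read kinetically for 3 min (ex 480/em 520 nm).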
# Sfp PPTase inh: qHTS Assay for Inhibitors of Bacillus subtilis Sfp phosphopantetheinyl transferase (PPTase); 4'-phosphopantetheinyl transferase ffp (Bacillus subtilis), Q9F4F7; 310,000 tested, 3.5% active; Biochemical Sfp PPTase activity, qHTS; Potency, µM, for the others: max response, negative = inhibition, actives largely listed as inhibitors; active = well fitted inhibition curve with a large enough effect; inconclusive = small, poorly fitted or top-dose-only effect, or another doubt; inactive = no such curve, though single readings can be large or run the other way;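 note: the enzyme is Sfp with the accession as filed and its product quenches rhodamine fluorescence; potency is the fitted concentration of half-maximal effect; 0% = enzyme reaction without inhibitor and -100% = no enzyme wells; top concentration of the series not given in the record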
#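 Step 1, compound plus 15 nM Sfp-PPTase, 15 min, room temperature. Step 2, add rhodamine-CoA (5 uM) and BHQ-2-YbbR (12.5 uM). Step 3, read 525/598 nm fluorescence at 0 and 30 min.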
# PINK1 expr mod: A Quantitative High throughput Screen to Identify Chemical Modulators of PINK1 Expression. PINK1 immunofluorescence, high-content cytometry, 24 h. Potency, µM (doses to about 76.6 µM), for the others: at the top dose activation (PINK1 increase), hits mostly activators. 410,000 tested, 0.2% active. AID 624263, 2012; active = well fitted activation curve with a large enough effect; inconclusive = small, poorly fitted or top-dose-only effect; inactive = flat fitted curve, though single readings scatter; cell line not stated here;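 note: potency is the fitted concentration of half-maximal effect; % of control where 0% means no effect; nearly all actives have a fitted effect of over 65% in size; a mitochondrial uncoupler was the plate control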
#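 Measures PINK1 amount and localization on or inside mitochondria by immunofluorescence. Stable cells get compounds at 5 concentrations for 24 hours before fixation and staining; CCCP controls included.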
# * = called active by the depositor; ? = inconclusive; . = no result given; [ ] = another dose, or the depositor's remark.
SMILES,TRPML1 agonist,ClpP mod,TRPML1 inh,Menin MLL FP FL,TRPV1 PAM,Sfp PPTase inh,PINK1 expr mod
CN(C)c1ccc(CNC(=O)C2CCN(S(=O)(=O)c3cn(C)cn3)CC2)cc1,0.4,-4.0%,0.5,.,.,.,1.5%
COc1ccc(-c2cc(C(=O)NCCN3CCOCC3)c3ccccc3n2)cc1,1.4,35.5µM*,-7.1,2.5,-1.7,9.9%,-1.2%
CCc1ccc(C2=CSC3=NCCN23)cc1,1.1,-2.7%,14.5,-0.1,-0.3,3.0%,-0.1%
CNCC(O)COc1cccc(OC)c1 (stereo not drawn),-1.3,0.8%,-7.6,-1.2,6.8,4.7%,0.0%
C/C(=N\Nc1nc(C)cc(-c2ccccc2)n1)c1cccc(N)c1,-0.1,1.3%,3.2,-1.8,2.6,4.1%,0.7%
Cc1ccnc2nc(C(=O)Nc3nnc(-c4ccccc4)o3)nn12,-0.1,.,-6.3,10.5,23.7,-28.1%,1.9%
Cc1ccc(NC(=S)N2CCOCC2)c(C)c1,-1.3,-1.4%,0.4,-2.1,4.7,5.7%,0.3%
O=C(CCC1CCCN(C(=O)c2ccsc2)C1)N1CCN(c2ccccn2)CC1 (stereo not drawn),1.0,-11.3%,6.4,3.5,0.5,3.5%,-1.2%
CCOc1ccc(C=NNC(=O)c2ccc(-n3cnnn3)cc2)cc1,0.0,-26.8%,-7.8,.,.,.,0.6%
CCOC(=O)c1cc(C(=O)OCC)c(=O)[nH]c1N1CCCC1,0.3,-7.2%,-18.7,2.7,-4.4,-11.1%,1.6%
O=C(O)COc1ccc(/C=N/NC(=O)c2cn(-c3ccccc3)nc2-c2ccccc2)cc1,4.4,.,21.6,7.3,1.4,-0.5%,2.0%
COc1ccc(-c2ccc3c(N)c(C(=O)Nc4ccc(C(F)(F)F)cc4)sc3n2)cc1OC,0.2,-20.1%,-12.9,.,.,.,13.4%
O=C(NCC1CC1)Nc1ccccc1F,0.9,.,23.8,0.5,0.0,2.2%,2.4%
Clc1cccc(CSc2ncn(-c3ccccc3)n2)c1,2.5,-2.4%,-9.2,1.7,10.3,-7.1%,0.4%[38.3 µM]
CN(C)c1ccc(/C=N/N(Cc2ccccc2)c2ccccc2)cc1,1.3,-5.6%,-4.2,-0.8,-10.5,18.0%,12.7%
CC1(C)CCC(=NNC(N)=S)CC1,0.5,-3.5%,-2.4,.,.,.,0.7%
COc1ccc(C(=O)N(C)Cc2ccccn2)cc1OC1CCN(C(C)C)CC1,-0.2,28.2µM*,14.7,.,3.6,12.4%,4.5%
Cc1cc(C)n(-c2nc3ccccc3nc2N2CCN(c3cccc(C)c3C)CC2)n1,-0.1,-0.2%,4.2,.,.,.,0.8%
CCOC(=O)/C(=C\c1ccc([N+](=O)[O-])o1)NC(=O)c1ccccc1,0.8,1.0%,0.8,?,10.2,9.8%,.
Cc1nc(CNC(=O)CC2C(=O)NCCN2Cc2cccc(Oc3ccccc3)c2)cs1 (stereo not drawn),0.7,-5.9%,6.9,-8.7,11.0,-14.6%,3.8%
CC1(C)CC(=O)C2=C(C1)OC(N)=C(C#N)C2c1cccc(OC(=O)c2ccco2)c1 (stereo not drawn),1.1,-0.3%,3.5,3.6,7.9,-12.6%,1.8%[38.3 µM]
CCCC(=O)OCC(=O)NC1CCCc2ccccc21 (stereo not drawn),3.8,.,17.8,-0.9,-5.7,18.0%,-0.5%
CCO[C@@H]1OC(C(=O)NC2CC2)=C[C@H](c2c[nH]c3ccccc23)[C@H]1CCCO,-0.3,0.0%,-1.9,1.7,3.7,15.7%,-0.8%
Nc1ccc(CCNc2ncnc3c2ncn3[C@@H]2O[C@H](CO)[C@@H](O)[C@H]2O)cc1,0.2,-3.9%,5.0,.,.,.,0.5%
CCc1ccccc1NC(=S)NCCSc1ccc(Cl)cc1,2.6,.,-22.1,-0.8,-9.4,30.6%,25.2%
# Next compounds follow.
SMILES,TRPML1 agonist,ClpP mod,TRPML1 inh,Menin MLL FP FL,TRPV1 PAM,Sfp PPTase inh,PINK1 expr mod
O=C(Nc1cccc(F)c1)c1cc(S(=O)(=O)N2CCC3(CC2)OCCO3)ccc1F,.,.,.,-0.1,-3.5,-6.0%,.
O=C(/C=C/c1ccc2ccccc2n1)c1cc(Br)ccc1O,1.4,-14.0%,33.3,?,.,?,6.0%
CC(C)Cc1nnc(NC(=O)CCC(=O)Nc2ccccc2F)s1,3.1,1.4%,9.9,-1.8,1.1,19.5%,1.5%
NC(=O)CC(NC(=O)Cc1cccc2ccccc12)c1ccc(N2CCN(c3ccccc3)CC2)c([N+](=O)[O-])c1 (stereo not drawn),0.9,1.0%,3.2,-14.0,?,-3.8%,2.2%
C=C(C)COc1ccc(-c2[nH]ncc2-c2ccccc2)c(O)c1,1.4,-12.2%,4.0,3.5,5.2,11.6%,5.4%
O=C(c1ccccc1Br)N1CCN(c2ccc([N+](=O)[O-])c(N3CCOCC3)c2)CC1,0.6,0.5%,-0.1,-5.1,-2.9,-3.3%,-0.4%
CCCCn1nnnc1C(c1cc2ccccc2o1)N1CCCC1 (stereo not drawn),2.1,-1.8%,.,.,.,.,0.8%
CCCOc1ccc(C(O)C(CN2CCOCC2)c2ccccc2)cc1 (stereo not drawn),-0.8,-2.1%,34.2,-1.8,14.6,-2.3%,-0.1%
O=C(N/C(=C\c1cccc([N+](=O)[O-])c1)C(=O)N1CCOCC1)c1cccc(Br)c1,-0.3,1.1%,-3.8,1.5,-0.4,-3.2%,4.7%
Cc1ccc(C)c(OCC(=O)Nc2ccc(S(=O)(=O)Nc3ccccn3)cc2)c1C,1.9,-16.6%,-6.4,-1.4,8.2,1.9%,-1.3%
CC(=O)Nc1ccc(NC(=O)CSc2ncnc3c2cnn3Cc2ccccc2)cc1,-0.7,.,-4.9,1.2,-5.5,13.9%,3.0%
N#Cc1ccc(NC(=O)CNc2cc(S(=O)(=O)N3CCOCC3)ccc2NCC2CCCO2)cc1 (stereo not drawn),-1.1,0.0%,0.9,-0.1,0.9,-7.2%,1.1%
O=C(CSc1nnc(CNC(=O)c2ccco2)o1)Nc1cccc(F)c1,-0.3,0.3%,-7.1,0.4,8.6,13.3%,0.2%
C=CCN1C(=O)C(Cc2ccc(C)cc2)S/C1=N/N=C/c1ccco1 (stereo not drawn),0.3,0.7%,0.6,0.8,8.2,?,2.5%[38.3 µM]
Cc1noc(C)c1-c1ccc(C(=O)NCc2ccccc2)c2occc12,-0.5,-5.2%,.,.,.,.,2.9%
O=C1OCC(c2ccccc2)=C1c1ccc(S(=O)(=O)N2CCOCC2)s1,0.9,-2.2%,-15.8,11.4,4.8,-16.2%,-1.0%
COc1ccc(C(=O)N[C@H]2CCCCNC2=O)cc1OC1CCN(C(C)C)CC1,-0.3,-1.3%,35.2,-0.5,-9.7,14.3%,1.8%
NC(=O)c1nsc(C(=O)N(Cc2ccco2)C(C(=O)NCC2CCCO2)c2ccc(O)cc2)c1N (stereo not drawn),-0.2,.,53.2,-1.0,23.0,13.9%,3.2%
COc1cc2nc(Cl)nc(N3CCCCC3)c2cc1OC,0.1,.,?,2.5,-2.1,20.9%,1.6%
N#Cc1nc(-c2ccco2)oc1NCCCN1CCOCC1,-0.3,3.55µM*,6.6,1.1,.,-1.2%,2.7%[38.3 µM]
Cc1ccccc1OCC(=O)N/N=C1\CC(=O)CC(C)(C)C1,-0.5,-1.3%,8.9,.,-10.5,3.1%,5.1%
Cc1ccc(S(=O)(=O)Nc2ccncc2)c(C)c1N(C)S(=O)(=O)c1ccc(F)cc1,0.6,0.6%,3.5,4.9,4.2,12.0%,1.2%
COc1ccc(CCN2CC(C(=O)NCc3cc(C(C)C)no3)CCC2=O)cc1 (stereo not drawn),-1.2,-0.5%,-11.7,1.6,7.0,12.6%,0.0%
Cc1ccc(S(=O)(=O)NCC(=O)OCC(=O)Nc2ccccc2OC(F)F)cc1,1.7,-1.4%,-1.0,-1.3,2.6,20.0%,-1.6%
Cc1ccc(NC(=O)C2CCCCC2)c(O)c1,.,.,.,11.9,-20.5,-6.2%,.
# (further entries)
SMILES,TRPML1 agonist,ClpP mod,TRPML1 inh,Menin MLL FP FL,TRPV1 PAM,Sfp PPTase inh,PINK1 expr mod
COc1ccc(C(=O)NCC(=O)OCC(=O)NCc2ccc3c(c2)OCO3)cc1,0.6,.,24.5,.,.,.,4.5%
CCO[C@H]1OC(C(=O)N2CCN(C)CC2)=C[C@@H](c2ccc3c(c2)OCO3)[C@@H]1CCCO,0.5,-2.0%,1.9,-5.9,14.8,-1.1%,-1.3%
CCN(CC)S(=O)(=O)c1cccc(-c2nnc(SCCOc3ccccc3)o2)c1,1.4,0.6%,11.0,-2.7,.,28.5%,1.0%
Cc1ccc(N(CC(=O)NCCc2ccccc2)C(=O)c2csnn2)cc1,2.4,.,44.5,2.8,11.4,-6.4%,-0.2%
N#C/C(=C\c1ccc(OCCN2CCOCC2)cc1)C(=O)Nc1ccccc1F,0.2,-6.1%,4.1,.,-1.0,-5.2%,1.4%
CC(C)NC(=O)COc1ccc(S(=O)(=O)N(C)Cc2ccccc2)cc1,1.0,2.8%,-0.5,3.7,-10.4,7.7%,-0.4%
CC(C)(C)c1nc2ccccc2c2nnc(SCC(=O)Nc3nccs3)n12,1.0,-5.6%,-19.0,-0.1,29.9,-2.9%,17.4%[38.3 µM]
CCOC(=O)NC(=O)c1cn(CCNCCO)c(=O)[nH]c1=O,-0.2,.,13.8,-0.3,1.9,12.9%,-0.9%
O=C(CCc1ccccc1)Nc1ccc2c(c1)C(=O)OC2,-0.9,1.0%,-5.2,7.0,-8.3,17.0%,0.9%
CC(=O)N/C(=C\c1ccccc1)C(=O)OC(C)C(=O)N(C)c1ccccc1 (stereo not drawn),-0.2,.,-1.2,.,-2.9,.,-0.4%
CCOc1ccc(OCC)c(NC(=O)c2cc(S(=O)(=O)N3CCCC3)cn2C)c1,-0.3,42.0%,28.8,.,.,.,6.1%

# Rows are unselected. Share with any hit: about 4.4%.
